HNF4A DNA FP – change in binding of human HNF4 alpha to DNA; activity change, % at 10 µM; HNF4a-FITC DNA binding, fluorescence polarization, 1 h; hit rate 0.3% among 360,000; P41235; in the data active means activity change above about 30%, passing the limit was not always enough;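 further: controls were the assay level and a saturating level of protein; the project sought stronger binding though the title names inhibitors; some compounds called inactive have numbers as strong as hits; positive values seem to mean higher polarization but the record does not say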
E coli growth – inhibitors of Escherichia coli growth; OD600, 23 h; active compounds read low; OD600 absorbance (test concentration not listed); hit rate 0.21% among 330,000;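 active means OD600 absorbance below the run mean of sample wells minus 3.6 SD, in any replicate, cut at about 0.56 in these data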;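 further: stock transfer was 300 nL into about 60 µL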
MLL AF4-AF9 inh – MLL-AF4/AF9 protein interaction inhibition; P42568; AlphaScreen, biotin-AF4 peptide binding to FLAG-AF9; inhibition, % at 10 µM; hit rate 0.47% among 350,000;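 active means every replicate reaching a set inhibition limit, whatever the replicate mean, cut at about 25% in these data; inconclusive means mean inhibition reaches that limit but some replicates miss it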;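 further: 0% = plate neutral control median and 100% = total signal loss; the record names both 10 and 1 µM as test concentration; the first replicate is given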
RanGTP-Impb inh – disruptors of Ran-importin-beta complex formation – biochemical, FRET, CFP-Ran, YFP-importin-beta, homogeneous, primary screen; cell-free CFP-Ran/YFP-importin-beta FRET ratio; inhibition, % (test concentration not listed); hit rate 1.1% among 300,000;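 active means most replicates above 15%; inconclusive means exactly half above 15%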;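 further: 0% = DMSO wells and 100% = Ran loaded with GDP instead of GTP; wells of about 40 µL received 100 nL stock; the first replicate is given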
Vif A3G – inhibitors of Vif binding to APOBEC3G peptide, primary screen, biochemical, TR-FRET, GST-Vif 1-94, biotin-A3G peptide, dose response retest (AID 1117319) | TR-FRET GST-Vif / biotin-A3G peptide binding; higher % means a stronger effect; test concentration not given here; strong numbers were not always called active | inhibition, %; hits with a dose series show IC50 in µM | hit rate 0.57% among 260,000;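 active means above the screen mean plus three standard deviations and confirmed in dose response; inconclusive means results disagree or hit not tested in dose response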;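 further: Vif residues 1-94 fused to GST binding biotinylated APOBEC3G peptide 110-148; 0% = full assay without inhibitor and 100% = GST in place of GST-Vif; retest series ran down from 100 µM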
UCH37 inh – blocks the human deubiquitinase UCH37. Q9Y5K5. purified proteasome/UCH37, Ub-AMC cleavage fluorescence. inhibition, % (test concentration not listed). hit rate 0.33% among 330,000;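 active means mean of two replicates above 20%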;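 further: 0% = compound-free wells with enzyme and 100% = wells lacking proteasome; stock transfer was 100 nL into about 20 µL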
Target sequence (Q9Y5K5 whole entry, looked up): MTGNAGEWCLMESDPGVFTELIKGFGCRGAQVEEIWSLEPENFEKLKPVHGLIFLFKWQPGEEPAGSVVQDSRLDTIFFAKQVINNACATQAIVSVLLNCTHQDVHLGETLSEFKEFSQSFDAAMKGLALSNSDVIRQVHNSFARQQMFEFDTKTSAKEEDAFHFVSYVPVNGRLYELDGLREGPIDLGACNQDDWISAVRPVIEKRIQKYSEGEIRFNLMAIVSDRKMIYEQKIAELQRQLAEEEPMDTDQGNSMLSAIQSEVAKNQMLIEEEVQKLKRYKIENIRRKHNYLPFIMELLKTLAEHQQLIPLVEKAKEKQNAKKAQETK
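system = Proteasome-associated human UCH37 deubiquitinase | amount = 0.15 nM proteasome as dispensed | medium = pH 7.4 Tris-HCl (50 mM) with ovalbumin, ATP-MgCl2, DTT | incubation = 30 min preincubation with enzyme, 25 min cleavage at room temperature | detection = AMC fluorescence 355/460 nm | read-out basis = percent inhibition | controls = no-proteasome and no-compound wells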
FGF22 binding – binders of recombinant human FGF22 by thermal shift; AID 651658; hit rate 1.5% among 340,000; calls only at 9.99 µM; Q9HCT0; SYPRO orange fluorescence; percent of sucrose octasulfate shift, DMSO zero;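 active means melting point raised past a set limit in the mean and every replicate; inconclusive means no clear call; three in four hits are not shown here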
Target sequence (Q9HCT0 whole entry, looked up): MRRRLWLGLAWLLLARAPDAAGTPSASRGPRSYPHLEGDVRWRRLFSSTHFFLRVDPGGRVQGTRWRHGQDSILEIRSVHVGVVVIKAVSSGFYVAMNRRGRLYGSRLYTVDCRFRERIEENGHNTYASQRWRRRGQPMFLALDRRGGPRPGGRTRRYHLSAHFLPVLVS
Active calls of the source: *; i = inactive; u = inconclusive; x = not tested or not shown; & = joins results of further samples.

Order of results: HNF4A DNA FP	MLL AF4-AF9 inh	FGF22 binding	Vif A3G	E coli growth	UCH37 inh	RanGTP-Impb inh
1) COc1ccc(CN(CCN(C)C)c2ccccn2)cc1
→ -1.0&-6.2&1.8	-3.1&-6.2&-26	i	u	0.67&0.7	-4.6&0.6	-2.1
2) O=C(Cn1ccnc1[N+](=O)[O-])NCCO
→ -1.7	-2.2	i	x	x	x	x
3) N=C(N=C(N)N)N1CCOCC1
→ 2.2	0.7	i	x	0.67	4.1	-3.1
4) CCC[C@H](N[C@@H](C)C(=O)N1[C@H](C(=O)O)C[C@@H]2CCCC[C@@H]21)C(=O)OCC
→ 2.1	-11	i	x	x	0.2	x
5) CC(=O)O[C@]1(C(C)=O)CC[C@H]2[C@@H]3C=C(Cl)C4=CC(=O)[C@@H]5C[C@@H]5[C@]4(C)[C@H]3CC[C@@]21C
→ -2.9&-6.7	1.7	i	x	x	-0.1	1.5
6) O=C1NCC2(CCN(CCc3ccccc3)CC2)O1
→ 0.0	1.8	i	3%	0.6	2.9	-3.2
7) CCCn1ncc(CN2CCCC(C(=O)c3cccc(OC(C)C)c3)C2)c1C (stereo not drawn)
→ 1.1	-0.6	i	x	0.69	-3.5	-3.6
8) O=C(O)[C@@H]1[C@H]2C[C@H]3c4[nH]c5ccccc5c4CCN3C[C@@H]2CC[C@@H]1O
→ -42	-21	i	x	x	-2.4	x
9) COc1cc2nc(N3CCN(C(=O)C4COc5ccccc5O4)CC3)nc(N)c2cc1OC (stereo not drawn)
→ -1.4	0.7	i	18%	0.66&0.63	-31	-0.8
10) CC(=O)[C@H]1CC[C@H]2[C@@H]3C[C@H](C)C4=CC(=O)CC[C@]4(C)[C@H]3[C@@H](O)C[C@]12C
→ 2.4	1.5&5.2	i	25%	x	0.3	0.3
11) CCCOc1ccccc1-c1nc2n[nH]nc2c(=O)[nH]1
→ 2.2	-1.6	i	x	0.7	-1.1	u
12) CCOC(=O)C1(CCOc2ccccc2)CCN(Cc2ccc(O)c(Cl)c2)CC1
→ -2.2	7.6	i	0%	0.68	-0.3	0.3
13) C[C@]12CC[C@H]3[C@@H](CCC4=CC(=O)CC[C@@]43C)[C@@H]1CC[C@@H]2C(=O)CO
→ 0.3	-3.1	i	u	x	2.4	0.8
14) COc1ccccc1OCC(O)COC(N)=O (stereo not drawn)
→ -1.1	3.1	i	32%	0.66	2.9	0.6
15) O=C1N(c2ccccc2)c2ccccc2C1(Cc1ccncc1)Cc1ccncc1
→ 22	-2.1	i	-9%	0.7&0.71	-0.7&2.4	-0.7&-5.3
16) CC(Oc1c(Cl)cccc1Cl)C1=NCCN1 (stereo not drawn)
→ x	x	x	x	0.68	-0.2	-6.6
17) NS(=O)(=O)c1cc2c(cc1C(F)(F)F)NC(Cc1ccccc1)NS2(=O)=O (stereo not drawn)
→ 0.2	0.7	i	24%	0.72	1.8	u
18) Cc1nc2c3ccccc3nc(NNC(=O)CCC(=O)N3CCN(c4ccccc4)CC3)n2n1
→ 1.2	2.5	i	x	0.66	0.9	-1.6
19) CC(C)=CC(=O)O[C@@H]1Cc2cc3ccc(=O)oc3cc2OC1(C)C
→ -3.3	-3.1	i	x	0.75	0.2	x
20) COc1c(O)cc2c(c1O)C1OC(CO)C(O)C(O)C1OC2=O (stereo not drawn)
→ -2.8	-0.5	i	x	0.67	1.2	x
21) Cc1onc(-c2ccccc2Cl)c1C(=O)N[C@@H]1C(=O)N2[C@@H]1SC(C)(C)[C@@H]2C(=O)O
→ 3.3&1.0	-2.4&7.1	i	x	x	0.1&0.5	x
22) C=C1c2cccc(O)c2C(=O)C2C(=O)[C@]3(O)C(=O)C(C(N)=O)C(=O)[C@@H](N(C)C)[C@@H]3[C@@H](O)[C@H]12 (stereo partly drawn)
→ -62	3.5	i	x	x	1.4	x
23) c1ccc2c(CC3=NCCN3)cccc2c1
→ 0.8	-5.9	i	-3%	0.7	4.5	5.2
24) Nc1ccc(C(=O)Nc2ccccc2N)cc1
→ 0.2	-0.4	i	x	0.67	1.8	1.0
25) CC1(C)OC2CC3C4CC(F)C5=CC(=O)C=CC5(C)C4(F)C(O)CC3(C)C2(C(=O)CO)O1 (stereo not drawn)
→ 3.5	-1.4	i	1%	0.68	3.8	4.7
26) O=C(O)COC(=O)Cc1ccccc1Nc1c(Cl)cccc1Cl
→ 1.0	-5.7	i	x	0.65	0.0	1.6
27) CC1=NN(c2ccccc2)C(=O)C1
→ -2.3	-11	i	u	x	2.4	-13
28) COc1cncc(C#Cc2ccccn2)c1
→ 4.5	-3.9	i	x	x	x	x
29) CC(=O)N1C[C@H](O)C[C@H]1C(=O)O
→ 0.6	-1.9	i	x	x	1.5	x
30) O=c1cc[nH]c(=O)[nH]1
→ 2.2	6.8	i	x	0.69	1.2	1.9

Results in sequence from the entries so far.
UCH37 inh, compounds 5 to 15 → -0.1, 2.9, -3.5, -2.4, -31, 0.3, -1.1, -0.3, 2.4, 2.9, -0.7&2.4
RanGTP-Impb inh, compounds 5 to 15 → 1.5, -3.2, -3.6, x, -0.8, 0.3, u, 0.3, 0.8, 0.6, -0.7&-5.3

Exported as labelled records: part of the list above.
[6] O=C1NCC2(CCN(CCc3ccccc3)CC2)O1
  HNF4A DNA FP: 0.0; MLL AF4-AF9 inh: 1.8; FGF22 binding: i; Vif A3G: 3%; E coli growth: 0.6; UCH37 inh: 2.9; RanGTP-Impb inh: -3.2
[7] CCCn1ncc(CN2CCCC(C(=O)c3cccc(OC(C)C)c3)C2)c1C (stereo not drawn)
  HNF4A DNA FP: 1.1; MLL AF4-AF9 inh: -0.6; FGF22 binding: i; Vif A3G: x; E coli growth: 0.69; UCH37 inh: -3.5; RanGTP-Impb inh: -3.6
[8] O=C(O)[C@@H]1[C@H]2C[C@H]3c4[nH]c5ccccc5c4CCN3C[C@@H]2CC[C@@H]1O
  HNF4A DNA FP: -42; MLL AF4-AF9 inh: -21; FGF22 binding: i; Vif A3G: x; E coli growth: x; UCH37 inh: -2.4; RanGTP-Impb inh: x
[9] COc1cc2nc(N3CCN(C(=O)C4COc5ccccc5O4)CC3)nc(N)c2cc1OC (stereo not drawn)
  HNF4A DNA FP: -1.4; MLL AF4-AF9 inh: 0.7; FGF22 binding: i; Vif A3G: 18%; E coli growth: 0.66&0.63; UCH37 inh: -31; RanGTP-Impb inh: -0.8

Single entries from the list:
In MLL AF4-AF9 inh, no. 23 shows -5.9
In MLL AF4-AF9 inh, no. 13 shows -3.1
In RanGTP-Impb inh, no. 6 shows -3.2
In UCH37 inh, no. 10 shows 0.3
In E coli growth, no. 17 shows 0.72
In HNF4A DNA FP, no. 21 shows 3.3&1.0
In MLL AF4-AF9 inh, no. 28 shows -3.9

Carrying on.
Order of results: HNF4A DNA FP	MLL AF4-AF9 inh	FGF22 binding	Vif A3G	E coli growth	UCH37 inh	RanGTP-Impb inh
31) CCCCCCCCO
→ 0.7	x	i	x	0.66	2.8	x
32) CC(C)Cn1cnc2c1c(=O)n(C)c(=O)n2C
→ -0.4	5.9	i	-3%	0.69	-0.1	u
33) Cc1nnc(NS(=O)(=O)c2ccc(N)cc2)s1
→ -0.3	-11	i	1%	0.63	2.7	7.8
34) C/C=C/C=N\NC(=O)c1ccncc1
→ 0.4	-3.3	i	x	x	x	6.5
35) COc1nc(C)nc(Cl)c1NC1=NCCN1
→ 1.2&-1.1	9.4&-0.9	i	x	0.68&0.73	2.3&1.8	2.2
36) CCOc1ccc(S(=O)(=O)N2CCCCCC2)c2ccccc12
→ -1.7	x	x	1%	0.7	4.7	1.1
37) CC(=O)NCCCCCC(=O)O
→ 3.4	-3.0	i	x	x	x	x
38) Cc1coc2c1C(=O)C(=O)c1c-2ccc2c1CCCC2(C)C
→ -6.2	6.9	i	u	0.74	7.1	1.6
39) CC1(C)O[C@H]2CC(=O)OCC23[C@H]2CC[C@@]4(C)[C@H](c5ccoc5)OC(=O)[C@H]5O[C@]54[C@]2(C)C(=O)C[C@@H]13 (stereo partly drawn)
→ 0.8	-1.4	i	x	0.69	1.6	0.4
40) Nc1cc(-c2ccncc2)c[nH]c1=O
→ 1.5	-9.1&-5.6	i	x	0.69	2.6	6.1

2 entries drawn at random from the list so far:
Order of results: HNF4A DNA FP	MLL AF4-AF9 inh	FGF22 binding	Vif A3G	E coli growth	UCH37 inh	RanGTP-Impb inh
2) O=C(Cn1ccnc1[N+](=O)[O-])NCCO
→ -1.7	-2.2	i	x	x	x	x
9) COc1cc2nc(N3CCN(C(=O)C4COc5ccccc5O4)CC3)nc(N)c2cc1OC (stereo not drawn)
→ -1.4	0.7	i	18%	0.66&0.63	-31	-0.8

Compound activity as filed in PubChem BioAssay.

A portion of the library; the hit share may differ from the screen's.
